# Screening data from PubChem.
# BasE inh: BasE siderophore enzyme inhibitors, primary screen, biochemical, Acinetobacter baumannii ATCC 17978, fluorescence polarization; purified BasE, fluorescence polarization binding displacement; inhibition, % (test concentration not listed); hit rate 0.1% among 84,000;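 active = both replicates above 25% with normal brightness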;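 also: 0% = negative plate control signal and 100% = positive plate control signal; stock transfer was 100 nL into about 30 µL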
# KSHV LANA nucl: inhibitors of KSHV LANA-nucleosome binding, primary screen, biochemical, fluorescence polarization, FITC-LANA1-23, chicken nucleosomes | z-score (no concentration beside the values) | AID 720717, 2013 | FITC-LANA1-23 / chicken nucleosome fluorescence polarization; active compounds read low | hit rate 0.3% among 51,000;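 active = both repeat wells score below -2 in polarization z-score versus plate sample wells, excluding overly bright wells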;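 also: 100 nL library stock added to about 30 µL; numbers are from one replicate; some results filed as inactive read as strong as hits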
#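 Assay system: FITC-LANA peptide and chicken nucleosomes; input: 240 nM purified chicken nucleosomes (480 nM peptide binding sites), final; also added: 50 nM FITC-LANA1-23 probe; medium: TEN-BT buffer, pH 7.5; doses: pin-transferred compound, 100 nL; times: 10–45 min, room temperature; technique: fluorescence polarization; replication: duplicates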
# An asterisk follows results filed as active; . = not tested or not shown; & = joins results of further samples.
mol,BasE inh,KSHV LANA nucl
COC(=O)c1sc(SC)c(C#N)c1-c1cccc(Cl)c1,0.2,.
COc1ccc(CN(C)C(=O)C2CC(=O)N(C3CCCC3)C2)cc1F (stereo unspecified),-1.0,.
Cc1ccc(-c2nnn(CC(=O)N3CC(=O)Nc4ccccc43)n2)cc1,-7.0,.
Cc1nnc2c3ccccc3nc(Nc3cccc(C(F)(F)F)c3)n12,0.7,.
CC(C)n1cc(-c2noc(-c3ccccc3Cl)n2)c(=O)n(Cc2ccccc2)c1=O,0.5,.
CC(C)NC(=O)NCc1c(F)cccc1Cl,2.3,.
O=C(CCCCn1c(=O)c2ccccc2n(Cc2cccnc2)c1=O)NCc1ccc2c(c1)OCO2,0.8,0.506
CC(C)NC(=O)CCSc1ccc(Cl)cc1,1.4,-0.752
O=C(NCC1OCCc2ccccc21)C1OCCc2ccccc21 (stereo unspecified),0.1,-0.304
CC(C)OC(=O)C(C)Oc1ccc2c(=O)c(-c3ccccc3)coc2c1 (stereo unspecified),3.6,.
CCSc1nnc(NC(=O)/C=C/c2ccco2)s1,-7.0,.
CC(OC(=O)c1c(Cl)cccc1Cl)C(=O)NC1CC1 (stereo unspecified),0.1,.
CC(=O)NCc1ccc(C(=O)CSc2nnc(-c3ccncc3)n2Cc2ccccc2)o1,-2.3,.
S=C=NC12CC3CC(CC(C3)C1)C2,-1.1,.
COCCn1c(C)cc(/C=C(\C#N)C(=O)OCCN2C(=O)c3ccccc3C2=O)c1C,3.5,.
COCC(C)n1c(C)cc(C2=NNC(=Nc3ccc(F)cc3F)SC2)c1C (stereo unspecified),2.2,.
CCc1nnsc1C(=O)Nc1cc(OC)ccc1OC,0.8,0.465
CC1(C)Cc2c(sc3ncn4nc(CSc5nc6ccccc6o5)nc4c23)C(C)(C)N1,1.9,-0.298
O=C(c1cccnc1)N1CCN(C/C=C/c2ccccc2)CC1,-0.2,.
CCCCC1CC1C(=O)Nc1ccccc1C#N (stereo unspecified),-2.3,2.46

mol,BasE inh,KSHV LANA nucl
c1ccc(Cn2ccc3ccccc32)cc1,1.7,.
CC(C)N(C(=O)NC(=O)c1csnn1)C(C)C,0.1,.
CCOc1ccc(S(=O)(=O)n2cccn2)cc1,-0.4,-1.03
CCOC(=O)COc1c(Cl)cc(/C=C2/N=C(c3ccco3)OC2=O)cc1OCC,1.6,0.358
CCOC(=O)c1c(NC(C)=O)nc(SC)n1Cc1ccco1,1.2,.
COc1ccc(CC(=O)Nc2ccc3c(c2)OCO3)cc1S(=O)(=O)N1CCOCC1,-0.3,.
Cn1c(N2C(=O)c3cccc4cccc(c34)C2=O)nc2ccccc21,-2.6,.
COc1cc(C2=Nc3c(c(C)nn3-c3ccccc3)P(=O)(N3CCOCC3)O2)cc(OC)c1OC (stereo unspecified),2.1,.
CC(C)(C)OC(=O)CSc1nc2ccccc2n1CCC#N,-0.8,.
Cc1ccc(C(=O)N2CCN(S(=O)(=O)c3ccc(F)cc3)CC2)s1,-3.0,.
NCCCC(N)CC(=O)NC1CNC(=O)C(C2CC(O)N=C(N)N2)NC(=O)/C(=C/NC(N)=O)NC(=O)C(CO)NC(=O)C(CO)NC1=O (stereo unspecified),-1.0,-0.76
Cc1cc(NC(=O)CSc2ncnc3sc(C)c(C)c23)n(-c2ccccc2)n1,-3.3,.
Cc1onc(-c2ccccc2)c1N1C(=O)CCN(Cc2ccccc2)C1=O,1.2,-0.434
Cc1ccc(C)c(NC(=O)Cc2nc(CN3CCOCC3)cs2)c1,0.5,.
CN(C(=O)CSc1nc2ccccc2[nH]1)c1ccccc1,-0.6,0.289
Cc1ccccc1-c1nnc(SCC(=O)c2ccccc2)o1,1.8,-0.201
CCOC(=O)C(CC)n1nc(C)n2c(cc3sccc32)c1=O (stereo unspecified),-0.2,-0.45
O=P(O)(Cc1ccccc1)c1ccccc1,0.3,0.684
CCOC(=O)Cn1c(=O)oc2cc(S(=O)(=O)N(CC(C)C)CC(C)C)ccc21,0.2,-0.0355
COc1ccc(-c2nc(N)n(C(C)=O)n2)cc1,0.4,-0.371

# Quoted at random: 5 compounds from above, in no set order.
mol,BasE inh,KSHV LANA nucl
Cc1ccc(C)c(NC(=O)Cc2nc(CN3CCOCC3)cs2)c1,0.5,.
Cc1cc(NC(=O)CSc2ncnc3sc(C)c(C)c23)n(-c2ccccc2)n1,-3.3,.
CC(C)N(C(=O)NC(=O)c1csnn1)C(C)C,0.1,.
CCOc1ccc(S(=O)(=O)n2cccn2)cc1,-0.4,-1.03
O=P(O)(Cc1ccccc1)c1ccccc1,0.3,0.684

# (next part)
mol,BasE inh,KSHV LANA nucl
COc1ccc2[nH]c(O)c(N=O)c2c1,0.0,.
O=C1CCCC(O)=C1N=Nc1ccc(S(=O)(=O)N2CCOCC2)cc1,3.0,.
S=C1SCN(C2CCCCC2)CN1Cc1ccccc1,0.7,-0.821
CCn1c(SCC(=O)Nc2ccnn2C2CCCC2)nc2cc(S(N)(=O)=O)ccc21,0.5,.
CCC(C)n1nc(NC(C)=O)c2cc3cc(C)ccc3nc21 (stereo unspecified),3.3,0.679
CCc1ccc(S(=O)(=O)NCCN2CCN(S(=O)(=O)c3ccc(CC)cc3)CC2)cc1,1.4,0.405
CN1C(C(=O)N2CCN(C(=O)c3ccco3)CC2)=CC(c2ccc(F)cc2)=NS1(=O)=O,0.6,-0.926
CC(C)(C)NC(=O)NCc1nc(-c2ccccc2)no1,-1.5,0.837
O=C1CC(c2nnc(Cc3ccc4c(c3)OCO4)o2)CN1c1ccccc1 (stereo unspecified),2.2,0.116
O=C1Cc2cc(C(=O)CSc3nnc(-c4cccs4)n3CC3CCCO3)ccc2N1 (stereo unspecified),-0.5,.
Cc1ccc(N2C(=O)CC(Cc3ccccc3)C2=O)cc1 (stereo unspecified),2.8,.
CCOC(=O)c1sc(/S(C)=N/S(=O)(=O)c2cccc(Cl)c2)c2c1CCC=C2 (stereo unspecified),1.7,.
Cc1ccc(C(=O)Nc2nncs2)cc1,0.7,0.658
CC1CCN(CCn2c(=S)[nH]c3ccccc3c2=O)CC1,0.1,-0.324
CCN(c1ccc(OC)cc1)S(=O)(=O)c1ccc2c(c1)OCC(C(=O)N1CCCC1)O2 (stereo unspecified),3.3,0.23
COc1cc(CO)ccc1OCc1ccccc1C,-4.5,2.41
Cc1ccc(-c2noc(CCC(=O)N3CCCCC3c3nc4ccccc4s3)n2)cc1 (stereo unspecified),2.5,.
Cc1noc(C)c1COC(=O)c1cc(S(=O)(=O)N(C)c2ccc(F)cc2)ccc1Cl,0.5,.
CC1SC(=S)N(c2ccccc2)C1=O (stereo unspecified),4.4,-0.479
CN(C(=O)c1cc2sccc2n1Cc1ccc(F)cc1)C1CCCCC1,-1.6,-0.556

mol,BasE inh,KSHV LANA nucl
CC1CN(C(=O)C(c2ccccc2)c2ccccc2)CC(C)O1 (stereo unspecified),0.5,-0.962
CC1(C)CC(=O)C(C2C3=C(CC(C)(C)CC3=O)OC3=C2C(=O)CC(C)(C)C3)=C(O)C1,1.7,.
Cc1noc(C)c1COC(=O)/C=C/c1ccco1,1.2,.
S=c1[nH]nc(CSc2nc(-c3ccccc3)cn2-c2ccccc2)n1-c1ccccc1,-0.6,.
COC(=O)c1ccc(NC(=O)Cc2ccc(F)cc2)cc1,-1.2,0.32
CCN[C@H]1C[C@H](C)S(=O)(=O)c2sc(S(N)(=O)=O)cc21,-2.1,0.127&-1.17
CSc1ccc(CN(C)CC(=O)NC(=O)NC2CCCCC2)cc1,-0.5,.
O=S(=O)(NCc1ccc2c(c1)OCO2)c1cccc2nsnc12,0.7,0.238
COc1cccc2sc(=NC(=O)c3ccccc3)n(C)c12,0.0,.
O=C1CSC2=NCN(c3ccc(-c4ccccc4)cc3)CN12,0.7,.
CCCCN1C(SCC(=O)NCCC)=NS(=O)(=O)c2ccccc21,-2.4,-0.089
O=C(O)COCC(=O)NC1CCCCNC1=O (stereo unspecified),0.9,-0.137
CC1C2=C(CC(C)(C)CC2=O)OC2=C1C(=O)CC(C)(C)C2,1.5,.
CCOC(=O)CN(c1ccccc1)C1SC(=O)N(Cc2cccc(C(=O)O)c2)C1=O (stereo unspecified),-0.5,.
COc1ccc(-c2noc(CN(Cc3ccco3)S(C)(=O)=O)n2)cc1,0.2,0.384
O=C1CC(=Nc2ccc(F)cc2)NN1,0.8,.
CC(C)[C@H](NC(=O)c1cc2ccccc2o1)c1nc2ccccc2[nH]1,0.9,.
Cc1c(C(=O)Oc2cccc3cccnc23)oc2ccccc12,4.3,-1.12
Cc1nn(CCC#N)c2nc(-c3ccc(F)cc3)cc(C(=O)O)c12,0.5,.
Cc1ccc(C(=O)NCc2ccccc2)cc1,-1.0,-0.008

# 3 of the compounds above, as labelled records.
COCC(C)n1c(C)cc(C2=NNC(=Nc3ccc(F)cc3F)SC2)c1C (stereo unspecified)
  BasE inh = 2.2	KSHV LANA nucl = .

CC(C)OC(=O)C(C)Oc1ccc2c(=O)c(-c3ccccc3)coc2c1 (stereo unspecified)
  BasE inh = 3.6	KSHV LANA nucl = .

O=C(NCC1OCCc2ccccc21)C1OCCc2ccccc21 (stereo unspecified)
  BasE inh = 0.1	KSHV LANA nucl = -0.304

# (list continues)
mol,BasE inh,KSHV LANA nucl
O=S(=O)(NC1CCCCC1)c1ccc(-c2cc(C(F)(F)F)no2)s1,0.6,.
COc1ccc(C2/C(=C(\O)c3ccccc3)C(=O)C(=O)N2CCN2CCOCC2)cc1 (stereo unspecified),5.7,.
COc1ccc(/C=N/n2ncc3ccccc32)cc1,-0.2,.
CN(N=O)C(=O)N[C@@H]1[C@@H](O)[C@H](O)[C@@H](CO)O[C@@H]1O,-1.8,0.462&1.24
O=C(CN1CCC(n2nnc3ccccc32)CC1)N(C1CCCCC1)C1CCCCC1,-0.2,-0.149
CCCC1=C(C(=O)OCC)C(c2ccccc2OC)NC(=O)N1 (stereo unspecified),-2.5,-1.06
COc1ccc(OC)c(/C=C/C(=O)N(Cc2cccs2)Cc2cccs2)c1,0.1,.
CCOC(=O)c1[nH]c(C)c(C(=O)N(CC)C2CCCCC2)c1C,-1.7,0.865
O=C(CCCc1ccccc1)Nc1cccc(-c2nn[nH]n2)c1,-0.3,-0.467
O=c1[nH]c2ccc(Cl)cc2c(-c2ccccc2)c1-[n+]1ccccc1,-0.3,.
CC(NS(=O)(=O)/C=C/c1ccccc1)C(=O)N1CCN(c2ccccc2Cl)CC1 (stereo unspecified),-3.8,.
Cc1cc(C)n(-c2nnc(C)n2/N=C/c2cc(Br)ccc2OCc2ccccc2)n1,-1.2,1.36
COc1ccc(NC(=O)C(C)Sc2nc(C)cc(=O)[nH]2)cc1 (stereo unspecified),-3.5,2.43
N#C/C(=C\c1ccc[nH]1)C(=O)NCCc1ccccn1,1.1,-0.762
CN(C)C(=S)Nc1nc2ccccc2s1,-2.2,0.0795
COc1cccc(NC(=O)NC2CCCC2)c1,-0.2,-0.854
O=C(O)CCN1C(=O)CCC1=O,-0.4,0.544
COc1ccc2c(COC(=O)CC3Oc4ccccc4NC3=O)cc(=O)oc2c1 (stereo unspecified),0.6,.
N#Cc1c2c(c(=O)n3c1[nH]c1ccccc13)CCCC2,-0.6,-0.698
CN(C(=O)CN1C(=O)C2CC=CCC2C1=O)C(c1ccccc1)c1ccccc1 (stereo unspecified),0.7,.

mol,BasE inh,KSHV LANA nucl
CC(C)c1ccc(NC(=O)c2cccnc2Cl)cc1,2.5,.
Cc1nc(Cc2nnc(SCC(=O)c3ccc4[nH]c(=O)[nH]c4c3)o2)cs1,0.1,.
OC1N(CN2CCN(c3ccccc3F)CC2)c2ccccc2C12OCCCO2 (stereo unspecified),0.0,-1.61
CCC(C)CCCNc1n[nH]c(=S)s1 (stereo unspecified),1.9,.
NC(=S)N/N=C/c1ccc(-c2ccc(S(=O)(=O)Nc3ncccn3)cc2)o1,2.5,.
Cc1noc(C)c1CC(=O)N(CC1CCCO1)c1nc(-c2ccc(Br)cc2)cs1 (stereo unspecified),1.3,.
Cc1c(-c2ccnc(=S)[nH]2)sc2nc(C(F)(F)F)nn12,0.8,0.473
Cc1cc(=O)oc2ccccc12,2.3,-1.33
CCN1C(=O)S/C(=C\c2cn(-c3ccccc3)nc2C)C1=S,-2.5,.
O=C1CCSc2c1cccc2C(=O)NC1CCCCC1,-2.6,2.79
O=C(Cn1ccc(=O)[nH]c1=O)OCc1ccccc1C(F)(F)F,0.7,.
CN(C(=O)Cn1c(=O)oc2cc(S(=O)(=O)N3CCCC3)ccc21)c1ccc(Br)cc1,-0.1,-1.02
O=C(CCC1=NS(=O)(=O)c2ccccc2N1)NCc1cccs1,1.3,0.465
CSC1=NCCN1C(=O)c1cccs1,1.1,0.12
N#CCCn1nc(-c2ccccc2)cc1Nc1ccccc1NC(=O)c1ccccc1,0.4,.
CN=Cc1cc(-c2ccccc2)sc1S,0.6,.
C=CCn1c(CC(C)C)nnc1SCC(=O)c1ccc(Cl)cc1,0.2,-0.334

# Not all compounds are listed; rates above refer to the full screens.
